CDC25B-CDK2 inh: human CDC25B-CDK2/CyclinA binding inhibition; HTRF CDC25B-CDK2/CyclinA binding, anti-His/anti-Flag; hits give high values; z-score (test concentration not listed); 94,000 compounds, 0.72% hits; AID 1259370;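 note: score is relative to mean and SD of negative controls; strong numbers were not always called active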
HIV TAR-Tat: HIV-1 TAR-Tat binding disruption | HIV-1 TAR RNA, Tat peptide displacement FRET; hits give high values | z-score (test concentration not listed) | 100,000 compounds, 0.6% hits | AID 1259389;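 note: score is relative to mean and SD of negative controls; some compounds called inactive have numbers as strong as hits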
* hit, by the source's call; x = no result given.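 Rule for the calls: active = z-score from 3 up in half or more of its runs; inactive = the rest.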

SMILES	CDC25B-CDK2 inh	HIV TAR-Tat
O=C(Nc1ccccc1-n1cccc1)c1cn(-c2ccc(F)cc2)nn1	-0.16	-0.34
CCC(Sc1nc(-c2cccs2)nc2c1c(=O)n(C)c(=O)n2C)C(=O)OC (configuration not stated)	-1.4	x
Cc1noc(/C=C/N(C)C)c1S(=O)(=O)N1CCC(C(=O)NC2CCCCC2)CC1	-1.2	-0.4
c1ccc2c(c1)CCN(CCNc1nn3nnnc3c3ccccc13)C2	-0.44	0.27
CC(=O)Oc1cc2c(C(=O)NCC3CCCO3)c(C)oc2c2ccccc12 (configuration not stated)	2.3	1.3
O=C(Cn1ncc2c1-c1ccccc1OC2)N1CCCCC1	-1.2	0.75
CC(=O)Nc1nonc1-c1nnc(SCc2ccc(F)cc2Cl)n1C	-0.86	1.4
O=C1CCSc2ccc(S(=O)(=O)N(CCN3CCOCC3)Cc3ccco3)cc2N1	x	1
Cc1noc(C)c1C(=O)NCc1ccc(-c2csnn2)cc1	-1	x
CC(=O)Nc1nnc(SCC(=O)Nc2ccc(F)c(F)c2F)s1	-1	x
CN(C)S(=O)(=O)N(CC(=O)Nc1ccccc1Sc1ccccc1)c1ccccc1	-2.4	0.33
Cn1cnnc1Sc1cc(C#N)c(C#N)cc1Sc1nncn1C	-1	x
CC1CCN(C(=O)Cn2ncn3cccc3c2=O)CC1	-2.5	0.36
Cc1noc(C)c1S(=O)(=O)Nc1ccc(Oc2c(Cl)cccc2Cl)nc1	-0.12	x
CCn1c(SCC(=O)OC)nc2c1c(=O)n(C)c(=O)n2C	0.95	1.4
CC1=C(c2ccc(C)cc2)S(=O)(=O)NC1=NCCCN1CCc2ccccc2C1	-0.07	-1.8
c1cc(OCC2CO2)ccc1OCC1CO1 (configuration not stated)	-2	x
CCn1c(C(=O)N2CCC(C(=O)NCCN3CCOCC3)CC2)cc2sccc21	-1.4	-0.54
CCOc1ccccc1N1CCN(S(=O)(=O)c2cccc3nsnc23)CC1	1.5	0.82
O=C(Nc1ccc(F)c(Cl)c1)c1noc2c1CCc1sccc1-2	x	-0.4
CNCCc1ccccn1	x	1.3
N#Cc1cnc(Oc2ccc(Cl)cc2)nc1N	-1.7	x
C=CCN1CC(c2nc3ccccc3n2Cc2ccc(F)cc2)CC1=O (configuration not stated)	-1.5	0.57
CC(C)c1ccc(-c2c(N(C)C3CCCCC3)c(=O)c2=O)cc1	x	2
CC(=O)c1ccc(C#N)c(SCC(=O)Nc2ccccc2Cl)n1	-3.1	x
CCOC(=O)c1nnn(-c2nonc2N)c1CN(CC)c1ccccc1	-0.7	0.84
CCOc1ccc(/C=C/c2nc(C#N)c(N3CCCCC3)o2)cc1	1	1.4
Cc1nc(-n2cccc2)sc1C(=O)N1CCN(C)CC1	-0.96	0.35
Cc1cccc(C)c1OCc1nc2c3cnn(-c4cccc(Br)c4)c3ncn2n1	0.73	1.4
CSC(=S)N(C)/N=C/c1cc(Cl)cc(Cl)c1O	-0.91	x
CCCCN(C(=O)c1sc2nc3n(c(=O)c2c1C)CCCCC3)C1CCN(C(C)=O)CC1	x	1.6
Brc1ccc(CN2CCc3nc(N4CCCC4)ncc3C2)cc1	x	-0.17
CCOC(=O)CN1C(C(=O)c2ccccc2)=C(OC(C)=O)c2ccccc2S1(=O)=O	-0.93	-0.99
CCCc1nn2c(=O)cc(COC(=O)CSc3ccccc3)nc2s1	x	0.8
COC(=O)C1C(=O)CC(C)(O)C(C(=O)OC)C1c1ccc(Br)cc1 (configuration not stated)	-0.41	1.1
COc1ccc(S(=O)(=O)Oc2ccc(C)cc2[N+](=O)[O-])cc1OC	-0.99	x
O=C(Cn1nc(C(F)(F)F)c2c1CCCC2)NC1CCCC1	0.53	2.1
CCCCCCn1c(CN2CCN(CCO)CC2)nc2c1c(=O)n(C)c(=O)n2C	0.3	-0.92
Nc1nccnc1C(=O)NNC(=O)c1cccc(C(F)(F)F)c1	-1.4	x
Cn1c2c(c(=O)n(C)c1=O)CN(CCc1ccc(Cl)cc1)CN2	-0.56	-0.96
C=CCNC(=O)CSc1nc2c(c(C(F)(F)F)n1)CCc1ccccc1-2	-1.1	0.36
C[C@@H]1CCC2[C@](C)(CO)[C@@H](O)CC[C@]2(C)[C@]12CCC(CO)(CCO)O2 (some centres not stated)	x	-2.2
CCN(C(=O)CSc1nncn2c1cc1oc(C)cc12)c1ccccc1	x	-7.6
COCCCN=C1NS(=O)(=O)C(c2ccc(F)cc2)=C1C	x	0.46
CS/C(=C(\C#N)C(=O)C1CC1)N1CCOCC1	-2	x
CCN1CCN(c2ncc3c(n2)CCN(Cc2cccc(F)c2F)C3)CC1	x	0.63
COc1nccnc1NS(=O)(=O)c1ccc(NCc2cc(Br)ccc2O)cc1	-0.05	0.72
Fc1ccccc1-c1noc(NCCc2ccccc2)n1	x	0.78
Cc1nc(-c2cccc(CSc3nnc(C(F)(F)F)n3C)c2)no1	-2	x
COCCCN1C(=O)C(=O)/C(=C(/O)c2ccc(C)cc2)C1c1cc(OC)ccc1OC (configuration not stated)	-2.3	0.1

(listing goes on)
SMILES	CDC25B-CDK2 inh	HIV TAR-Tat
O=C(Nc1sc2c(c1C(=O)O)CCCC2)c1ccco1	-2.2	-0.25
COc1ccccc1CNc1nc2ccccc2c2nc(-c3ccccc3)nn12	-1.2	-0.79
O=c1c2nnn(Cc3ccccc3F)c2ncn1Cc1cccc(F)c1	0.57	0.65
Cc1ccc(-c2nnc(Nc3ccc(O)cc3)c3ccccc23)cc1S(=O)(=O)NCC1CCCO1 (configuration not stated)	-2.3	-0.38
Nc1c2c(=O)[nH]c(-c3ccccc3)nc2nn1-c1ccccc1	-2	x
Fc1ccc(CNc2nc(-c3ccccc3F)no2)cc1	x	1.8
Cn1c(=O)c(=O)n(C)c2cc3c(cc21)nnn3Cc1ccccc1	1.2	-0.08
C=CCNc1nc(NCc2cc(OC)ccc2OC)c2cnn(C)c2n1	x	2.3
O=C(NCCN1CCCC1)c1[nH]nc2c1CCc1ccccc1-2	x	-0.2
COc1cc(NC(=O)CSc2ccc(-c3sc(C)nc3C)nn2)cc(OC)c1	x	0.57
CCc1nn(CC(=O)NCCC2=CCCCC2)c(=O)c2cc3ccccc3n12	2.4	0.29
CC(C)c1onc(C(=O)N2CCN(C(=O)c3ccco3)CC2)c1[N+](=O)[O-]	-1.4	1.4
CC1=C(c2ccc(C)c(C)c2)S(=O)(=O)N=C1Nc1ccccc1C	-1.4	-1.2
CC(C)(C)NC(=O)[C@H]1C[C@H]2CCCC[C@H]2CN1C(=O)C12CC3CC(CC(C3)C1)C2	-2.1	x
CSc1nc(-c2ccccc2)c(C#N)c(=O)[nH]1	-2.1	0.96
Cc1nn2c(CN(C(=O)CN3CCOCC3)c3ccccc3)nnc2c2ccccc12	-1.6	0.76
Nc1ccccc1-c1nc(Br)nn1Cc1ccc(F)cc1	-0.2	1
Cc1ccc(-c2ccc(=O)n(-c3c(C)noc3C)n2)cc1S(=O)(=O)N1CCc2ccccc2C1	x	0.98
COc1ccc(Cl)cc1Nc1c(C)c(C)nc2ncnn12	x	0.47
O=C(CSCc1ccccc1)Nc1c(-c2cccs2)nc2ccccn12	-1.9	x
CC(=O)N1c2ccc(S(=O)(=O)NCC3CCC(C(=O)N4CCOCC4)CC3)cc2CC1C (configuration not stated)	x	-1.1
COC(=O)c1sccc1NNC(=O)c1ccc(C)cc1	1	x
O=C(Nc1ccccc1)N1CCN(c2ncnc3sccc23)CC1	-0.79	x
CCN(CC)C(=O)[C@]1(c2ccccc2)C[C@@H]1CN	x	1.6
Cc1ccc(Cl)cc1N1CCN(S(=O)(=O)c2c(C)nc3sccn3c2=O)CC1	x	3
OC(COc1ccc(Br)cc1)CN1CCN(c2ccccc2)CC1 (configuration not stated)	-2.2	0.24
CCOC(=O)c1c(C)[nH]c(C)c1S(=O)(=O)N1CCCC(C)C1 (configuration not stated)	x	0.78
CN(C)/C=N/c1ncccn1	-1.7	x
CCOC(=O)c1ccc(NC(=O)NC2CC(=O)N(C3CCCC3)C2)cc1 (configuration not stated)	-0.76	0.76
CC(C)c1ccc(NNS(=O)(=O)c2ccc(Cl)c(Cl)c2)cc1	0.57	x

Reformatted with two lines to a compound: 15 of the compounds above.
Results follow in this order: CDC25B-CDK2 inh	HIV TAR-Tat
- O=C(Nc1ccccc1-n1cccc1)c1cn(-c2ccc(F)cc2)nn1
  -0.16	-0.34
- CCC(Sc1nc(-c2cccs2)nc2c1c(=O)n(C)c(=O)n2C)C(=O)OC (configuration not stated)
  -1.4	x
- Cc1noc(/C=C/N(C)C)c1S(=O)(=O)N1CCC(C(=O)NC2CCCCC2)CC1
  -1.2	-0.4
- c1ccc2c(c1)CCN(CCNc1nn3nnnc3c3ccccc13)C2
  -0.44	0.27
- CC(=O)Oc1cc2c(C(=O)NCC3CCCO3)c(C)oc2c2ccccc12 (configuration not stated)
  2.3	1.3
- O=C(Cn1ncc2c1-c1ccccc1OC2)N1CCCCC1
  -1.2	0.75
- CC(=O)Nc1nonc1-c1nnc(SCc2ccc(F)cc2Cl)n1C
  -0.86	1.4
- O=C1CCSc2ccc(S(=O)(=O)N(CCN3CCOCC3)Cc3ccco3)cc2N1
  x	1
- Cc1noc(C)c1C(=O)NCc1ccc(-c2csnn2)cc1
  -1	x
- CC(=O)Nc1nnc(SCC(=O)Nc2ccc(F)c(F)c2F)s1
  -1	x
- CN(C)S(=O)(=O)N(CC(=O)Nc1ccccc1Sc1ccccc1)c1ccccc1
  -2.4	0.33
- Cn1cnnc1Sc1cc(C#N)c(C#N)cc1Sc1nncn1C
  -1	x
- CC1CCN(C(=O)Cn2ncn3cccc3c2=O)CC1
  -2.5	0.36
- Cc1noc(C)c1S(=O)(=O)Nc1ccc(Oc2c(Cl)cccc2Cl)nc1
  -0.12	x
- CCn1c(SCC(=O)OC)nc2c1c(=O)n(C)c(=O)n2C
  0.95	1.4

(further entries)
SMILES	CDC25B-CDK2 inh	HIV TAR-Tat
CCCN1CNC(=S)N(c2ccc(F)cc2)C1	-1.1	x
CN(C)C(=O)C1c2ccccc2C(=O)N(C2CCCC2)C1c1cccs1 (configuration not stated)	-3.2	0.93
O=C1NCCC/C1=N/Nc1cc(F)ccc1F	-1.4	x
O=C1c2ccccc2S(=O)(=O)N1CC1CC(c2ccccc2Cl)=NO1 (configuration not stated)	-0.59	x
CCCCn1c(CSc2ccccn2)cn(-c2nnc(C(C)(C)C)s2)c1=O	-0.56	x
C=CCOc1cccc(C2c3c(oc4ccccc4c3=O)C(=O)N2Cc2ccc3c(c2)OCO3)c1 (configuration not stated)	1.2	0.05
CC(C)c1ccc(C2NC(=S)NC3=C2C(=O)CC(C)(C)C3)cc1 (configuration not stated)	-1.4	x
COC(=O)c1cc2oc(C)cc2n1Cc1nc(-c2cccs2)oc1C	-2	2.1
CN1CCc2c(sc3c2C(=O)NC(c2ccc(-c4ccc(F)cc4)o2)N3)C1 (configuration not stated)	3	-3.5
COc1ccc(OC)c(C2Nc3ccc(C)cc3-c3cc(C)nn32)c1 (configuration not stated)	-0.62	1.9
Cc1cc2c(c(=O)n1Cc1cccs1)C(c1ccco1)C(C#N)=C(N)O2 (configuration not stated)	-0.45	x
CCn1c(SCC(N)=O)nc2c(c1=O)SCC2	-1.3	1.5
O=c1ccc2cc3c(-c4ccc(Cl)cc4)coc3cc2o1	-0.72	x
Cc1cc(S(=O)(=O)[C@H]2CS(=O)(=O)C[C@@H]2NCCc2cccs2)ccc1F	-2.4	1.8
CCOC(=O)NC(Nn1cnnc1)(C(F)(F)F)C(F)(F)F	-1.6	x
COc1ccc(NC(=O)C2Nc3ccccc3S(=O)(=O)N2)cc1OC (configuration not stated)	x	0.43
O=C(NCCCO)C(=O)Nc1ccc(Br)cc1	-1.7	-0.35
O=C(CSc1nccn1C1CCCCC1)Nc1ccc(F)cc1	x	0.71
C=CCc1ccccc1OCc1cc(=O)n2nc(CCC)sc2n1	0.39	0.66
COc1ccc(C(c2c(O)cc(C)oc2=O)c2c(O)cc(C)oc2=O)cc1	-1.6	0.7
NCCCn1c(-c2ccncc2)nc2cccnc21	x	0.72
CC(=O)Nc1ccc(S(=O)(=O)N(CCOC(C)=O)C(C)C)cc1	-0.45	x
C=CCSc1nc(C)c2ccccc2n1	-0.35	0.92
O=C1CC(c2cccs2)CC2=C1C(c1ccc3c(c1)OCO3)Nc1ccccc1N2 (configuration not stated)	x	1.3
CCn1cc(S(=O)(=O)c2ccc(C)cc2)c(=O)c2cc(Cl)ccc21	0.33	-0.19
Cc1ncc(-c2ccc(S(=O)(=O)Nc3ccc(Br)c(C)c3)cc2)o1	x	0.94
O=S(=O)(c1cnc[nH]1)N1CCCC1c1cccc(F)c1 (configuration not stated)	-0.24	2
O=C(Nc1ccccc1)OCCCc1nc2ccccc2s1	-2	1.7
COc1ccc(N2C(=O)C3N=NN(CC(=O)Nc4cccc(SC)c4)C3C2=O)cc1Cl (configuration not stated)	x	3.3
CC(C)=CC[C@@H](O)C1=CC(=O)c2c(O)ccc(O)c2C1=O	x	34*
CCCCOC(=O)CCCN1C(=O)S/C(=C/c2ccccc2)C1=S	-3.2	-0.1
CN(C)S(=O)(=O)c1ccc2nc(NC(=O)c3ccco3)sc2c1	x	-0.28
CC1N=C2c3ccccc3N=C(SCC(=O)Nc3cc(F)ccc3F)N2C1=O (configuration not stated)	x	0.07
CCC(Sc1nc2cc(OC)c(OC)cc2c2nc(C)nn12)C(=O)NCc1ccco1 (configuration not stated)	-0.65	x
Cc1ccc(C(=O)NNC(=O)Cn2nnc(-c3ccccc3C(F)(F)F)n2)cc1	-1.8	x
COc1ccccc1Nc1nc(C2(C)CCC(=O)O2)cs1 (configuration not stated)	-1.1	0.58
O=C1C(=O)N(c2cccnc2)C(c2ccc(Br)cc2)/C1=C(\O)c1ccc(Cl)cc1 (configuration not stated)	-3.7	2.3
COc1cccc(CNc2c3c(nc4ncnn24)CCCC3)c1	x	1.4
Cc1nnc(SCc2ccccc2)[nH]c1=O	-1.7	-0.7
O=c1c2ccccc2c2ccccc2c(=O)n1-c1ccc(F)cc1	-0.48	x
O=C(Nc1nnc(SCc2cc(=O)n3ccsc3n2)s1)c1ccccc1F	x	1.5
CCCOc1ccc(C2c3c(oc4ccccc4c3=O)C(=O)N2c2nncs2)cc1OCC (configuration not stated)	0.35	-1.1

Assay outcomes as filed in PubChem BioAssay.
